From PubChem
Six1-Eya2 inh – blocks human Six1 binding to Eya2. 360,000 tested, 0.56% active. activity change, % (test concentration not listed). AlphaScreen GST-Six1/His-Eya2 binding, biochemical; active compounds read low; control for the full effect not named in the record. AID 651725; in the data active = activity change below about -65%; inconclusive = about -30% to -65%; inactive = above about -30%; further: on the % scale 0 is the no-effect control and ±100 the full control effect
Target sequence (O00167 whole entry, looked up): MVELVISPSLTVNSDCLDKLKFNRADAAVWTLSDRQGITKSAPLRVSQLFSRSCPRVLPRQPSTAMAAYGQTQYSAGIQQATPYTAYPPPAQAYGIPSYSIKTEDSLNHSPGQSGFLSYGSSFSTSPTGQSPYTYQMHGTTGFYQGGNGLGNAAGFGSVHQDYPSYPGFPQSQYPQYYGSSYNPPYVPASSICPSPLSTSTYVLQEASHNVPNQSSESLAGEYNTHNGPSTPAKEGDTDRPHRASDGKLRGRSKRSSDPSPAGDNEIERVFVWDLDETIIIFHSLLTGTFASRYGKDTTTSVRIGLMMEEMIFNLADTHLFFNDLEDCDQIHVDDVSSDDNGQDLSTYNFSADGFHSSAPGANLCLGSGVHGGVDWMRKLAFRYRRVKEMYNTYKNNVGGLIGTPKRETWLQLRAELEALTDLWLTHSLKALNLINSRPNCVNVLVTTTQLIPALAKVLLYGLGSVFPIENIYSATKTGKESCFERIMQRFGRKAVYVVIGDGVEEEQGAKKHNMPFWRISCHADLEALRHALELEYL
Target sequence (Q15475 whole entry, looked up): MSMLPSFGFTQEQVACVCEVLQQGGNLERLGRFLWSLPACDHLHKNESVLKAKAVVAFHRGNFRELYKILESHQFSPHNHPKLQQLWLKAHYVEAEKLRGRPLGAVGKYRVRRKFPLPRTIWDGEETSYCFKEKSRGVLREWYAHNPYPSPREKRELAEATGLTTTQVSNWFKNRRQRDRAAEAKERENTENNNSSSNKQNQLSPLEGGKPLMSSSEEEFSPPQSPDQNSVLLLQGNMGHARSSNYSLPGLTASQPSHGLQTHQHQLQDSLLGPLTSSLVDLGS
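Six1/Eya2 binding was read as AlphaScreen signal after compounds were pinned into GST-Six1 plus His-tagged Eya2 (5X stock 250/500 nM) in pH 8.0 Tris/NaCl/TCEP buffer, beads added, then incubated 1 h, 37 C, dark.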
PINK1 modulator – changes PINK1 expression | PINK1 immunofluorescence, high-content cytometry, 24 h | Potency, µM (titrated, usually from 76.6 µM), for the others: top-dose activation (PINK1 increase), actives largely listed as activators | 410,000 tested, 0.2% active; active = well fitted activation curve with a large enough effect; inconclusive = small, poorly fitted or top-dose-only effect; inactive = flat fitted curve, though single readings scatter; cell line not stated here;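 further: potency means the concentration at half of the fitted maximal effect; % of control where 0% means no effect; nearly all actives have a fitted effect of over 65% in size; a mitochondrial uncoupler was the plate control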
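Decision-based qHTS: stable cells, 24 h exposure to five compound concentrations, CCCP as control. Fixed cells stained for PINK1 plus nuclear, mitochondrial and cell markers, cytometer read.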
TRPML1 ag – agonists of human TRPML1 channel. 410,000 tested, 0.12% active. activation, % (no concentration beside the values). Q9GZU1. AID 624414. TRPML1-expressing cells, Ca2+ dye fluorescence, FDSS; host cell line not named in the record; reference of the full effect not given here; in the data active = activation above about 50%; inconclusive = about 30% to 50%; inactive = below about 30%; further: 0% is about no effect; the text of the record puts the active cut at 80%
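Tetracycline-induced TRPML1-DL cells are seeded and incubated overnight before loading with a no-wash Ca2+ dye and quencher. Agonist activity is taken from the 110 s fluorescence read following compound pin-transfer on an FDSS, before EC80 54-4 challenge.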
TRPML1 blocker – blocks the human TRPML1 channel; activity change, negative = inhibition, % (concentration not given with the values); 390,000 tested, 0.02% active; Q9GZU1; TRPML1-inducible cells, Ca2+ dye fluorescence, FDSS; active compounds read low; inhibition of EC80 agonist-evoked calcium signal; AID 624415; in the data active means activity change below about -50%; inconclusive means about -30% to -50%; inactive means above about -30%;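 further: stimulus is agonist 54-4 at its EC80 concentration; on the % scale 0 is the no-effect control and ±100 the full control effect; the text of the record puts the active cut at -80%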
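Tet-induced TRPML1-DL cells loaded with Ca8 no-wash calcium dye were read kinetically on FDSS. Compound addition was followed by EC80 agonist 54-4 (4 uM final); inhibition was read over 110 s.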
D2 ag – activates the human D2 dopamine receptor; P14416; DiscoveRx PathHunter D2 beta-arrestin, luminescence, 90 min; 100% = 57 uM dopamine signal; activation, % (no concentration beside the values); 360,000 tested, 0.084% active; AID 624465; in the data active = activation above about 40%; inconclusive = about 15% to 40%; inactive = below about 15%; further: compound concentration not given in the record; the text of the record calls up to 30% inactive
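Agonist mode: compounds alone added to overnight-plated D2 PathHunter cells for 90 min at 37 C, with 57 uM final dopamine (EC100) defining full response. Beta-arrestin recruitment detected by chemiluminescent reagent, read after 1 h at ambient temperature.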
D2 PAM – human D2 receptor positive allosteric modulation. P14416. DiscoveRx D2 beta-arrestin cells, luminescence, 90 min; 100% = 57 uM dopamine signal. potentiation, % (no concentration beside the values). 360,000 tested, 0.23% active; active = potentiation of 50% or more; inconclusive = 30% to 50%; inactive = 30% or less;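 further: compound concentration not given in the record; tested on top of an EC20 dose of dopamine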
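PathHunter beta-arrestin assay in DiscoveRx D2 cells. Compounds were added with an EC20 of dopamine (50 nM final) for 90 min at 37 deg C. Luminescence was read 1 h after detection reagent, with 57 uM dopamine as the EC100 control.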
Active calls of the source: *; ? = inconclusive; / = no result given; & = joins results of further samples.

SMILES	Six1-Eya2 inh	PINK1 modulator	TRPML1 ag	TRPML1 blocker	D2 ag	D2 PAM
CC(C)(C)OC(=O)N1CCC(c2c(C(=O)NCCN3CCOCC3)cnn2-c2ccccc2)CC1	/	-1.8%	0.5	13	/	/
COc1ccc(OCC(=O)Nc2nc3ccccc3[nH]2)cc1	-4	0.4%	-1.1	6	-0.4	13
CC1=CCC(C(=O)O)C(C(=O)Nc2ccc(-c3nc4ccc(C)cc4s3)cc2)C1 (stereo unspecified)	-26	-0.8%	-1.0	-6	0.1	1
CCCc1nn(C)c(C(=O)Nc2ccccc2)c1Cl	15	0.2%	1.1	11	-2.4	1
Cc1ccc(Cl)cc1NC(=O)CC1NCCNC1=O (stereo unspecified)	4	-1.9%	1.3	24	-1.8	-3
O=C(NC1CCCCC1)C(c1ccco1)N(CCc1ccccc1)C(=O)C(F)(F)F (stereo unspecified)	24	4.9%	1.1	102	-3.5	11
CCN1CCN(Cc2ccc(NC(=O)c3cc(NC(=O)N4CCNC4=O)cc(OC)c3)cc2C(F)(F)F)CC1	-5&-12	-1.0%&2.3%	0.0&-0.6	9&-11	8.4&3.2	3&-12
CCCNC(C)C(=O)Nc1ccccc1C (stereo unspecified)	-2	0.2%	-0.1	15	-1.8	0
Nn1c(SCC(=O)Nc2ccc3c(c2)CCC3)nnc1C1CC1	6	-0.7%	0.3	-4	-5.4	-2
CCN(C(=O)CSc1nnc(Nc2ccccc2C)s1)C1CCS(=O)(=O)C1 (stereo unspecified)	6	-0.9%	0.3	-3	0.6	-22
COc1cc(/C=C/C(=O)O)ccc1OS(=O)(=O)c1ccc(C)cc1	3	2.0%	0.3	11	-1.0	-5
CCC(=O)N1CCC(C)(C(=O)Nc2ccc(OC)c(OC)c2)C1 (stereo unspecified)	11	-0.3%	-0.6	/	-3.6	-4
CCOc1ccc(CNC(=O)CCc2c(C)nn(-c3ccc(N4CCCCC4)nn3)c2C)cc1	/	1.5%	-0.8	7	/	/
Cc1ccc(NC(=O)c2ccc(NC3=NC4CS(=O)(=O)CC4S3)cc2)cc1 (stereo unspecified)	5	0.5%	-0.5	27	2.4	-4
CC(C)(C)N1[C@@H](CC(=O)O)c2cc(C(F)(F)F)ccc2S1(=O)=O	12	1.5%	-0.7&0.0	1	2.0	-3
Cc1occc1C(=O)OCC(=O)Nc1ccc(F)cc1	6	1.0%	0.0	1	-0.1	3
Cc1ccccc1C(=O)Oc1ccc2ccc(O)cc2c1	-5	9.0%	1.2	4	1.6	3
Cc1ccc(-c2ccc(/C=N/N3C(=O)C4C5C=CC(C6CC56)C4C3=O)o2)c([N+](=O)[O-])c1 (stereo unspecified)	-24	0.7%	0.1	-12	-3.0	-9
Cc1onc(-c2ccccc2)c1C(=O)Nc1ccc(OC(C)C)cc1	-2	2.2%	0.3	-3	-6.4	6
O=C(c1ccccc1)c1cc(-c2ccccn2)c(N2CCOCC2)s1	24	-2.6%	-1.5	6	-0.2	-6
Cc1nc2ccc(S(=O)(=O)NCC(=O)N(C)Cc3ccco3)cc2s1	0	-2.9%	0.0	10	-1.9	-17
O=C(/C=N/O)NCCCn1ccnc1	0	1.9%	-0.7	-8	-3.9	6
Cc1ccc(C)n1NC(=O)c1ccccc1	-1	3.5%	0.5	29	-3.1	10
Cc1ccc(O)c(CO)n1	8	-2.4%	0.5	48	-2.3	-2
Cc1nn(-c2ccc(C(=O)O)cc2)c(=O)c2ccccc12	4	0.4%	-0.6	1	-1.9	16
O=C(CCc1nnc(Cc2c[nH]c3ccccc23)o1)NCC1CC12CCCCC2 (stereo unspecified)	-4	4.2%	0.7	-2	-1.7	-2
CCOc1ccccc1/C=c1\sc2ncnn2c1=O	1	17%	-1.2	5	-2.6	-2
Cc1ccc(NC(=O)Cc2nnc(SCC(=O)Nc3nncs3)n2C)c(C)c1	-8	-1.1%	1.2	18	-4.8	-2
C=CC[C@]12CC=CC(=O)[C@@]1(O)O[C@H](c1ccc(OC)c(OC)c1)[C@H]2C	6	-1.3%	/	/	-3.3	-55
Cc1cc(C)c(NC(=O)CNC(=O)c2ccccc2OCc2c(C)noc2C)c(C)c1	-8	7.1%	-0.4	-3	-1.2	-17
Cc1ccc(S(=O)(=O)N2CCC(=O)N([C@H](COC(=O)Nc3ccccc3)Cc3ccccc3)CC2)cc1	-8	0.3%	1.0	/	/	/
O=C(O)c1ccc(NC(=S)NC(=O)c2ccc3ccccc3c2)cc1	-7	0.2%	0.9	19	4.7	-2
O=C(NCCc1ccccn1)c1cccc(S(=O)(=O)N2CCc3ccccc32)c1	0	2.3%	0.6	8	-0.5	-15
CCC1=Nc2cc(C(=O)NCCCOC)ccc2Sc2ccc(Br)cc21	/	1.9%	0.5	37	/	/
COc1ccc(C2C(C#N)=C(N)OC3=C2C(=O)CCC3)cc1Cn1cc([N+](=O)[O-])cn1 (stereo unspecified)	0	-1.1%	-0.8	0	-3.5	-10
O=C(NCc1nnc(SCc2ccccc2)n1-c1ccccc1)C12CC3CC(CC(C3)C1)C2	-7	?	0.0	0	-2.7	-18
FC(F)Oc1ccccc1/C=N/n1cnc2ccccc21	8	1.5%	1.1	55	-3.5	-6
O=C(Cc1c(F)cccc1Cl)Nc1ccccc1C(=O)N1CCOCC1	-2	-2.9%	-0.1	-8	-3.2	-12
CCOC(=O)N1CCN(C(=O)c2cn(C)c3ccc(S(=O)(=O)N4CCC(C)CC4)cc3c2=O)CC1	5	-0.2%	-0.1	-10	3.4	-4
Cc1ccoc1C(=O)N1CCCCC1C(=O)O (stereo unspecified)	-1	0.4%	0.8	3	1.2	-3
CCC(=O)Nc1ccc(C2=Nn3c(nnc3C(C)C)SC2)cc1	6	0.2%	/	/	0.5	-1
COC(=O)C1=C(C)N(Cc2ccc3c(c2)OCO3)C(=O)C1	13	-1.8%	0.0	4	-4.2	-16
COc1ccc2c(Cl)c(C(=O)N/N=C3\CCCC(=O)C3)sc2c1	?	2.9%	15	3	-8.1	-1
Cc1ccccc1CCN1CCCC(CN(C)C(=O)C(=O)c2ccco2)C1 (stereo unspecified)	0	1.0%	0.1	-8	-6.3	-32
COc1ccc(CNC(=O)CN(c2cc(C)cc(C)c2)S(=O)(=O)c2c(C)noc2C)cc1	1	4.1%	1.1	5	3.1	-5
O=C1C2C3c4ccccc4C(c4ccccc43)C2C(=O)N1/N=C/c1cccc(O)c1 (stereo unspecified)	1	0.0%	3.5	74	0.2	-10
COc1ccccc1C(=O)NC(C)c1ccccc1 (stereo unspecified)	0	0.2%	-1.6	6	-1.7	-2
Cc1cc(/C=N/NC(N)=S)c(C)n1-c1ccc(Cl)c(Cl)c1	-25	2.4%	0.4	27	-1.5	-5
CN(Cc1ccccc1)C(=O)CCS(=O)(=O)c1ccc2c(c1)n(C)c(=O)c(=O)n2C	-8	0.3%	-0.4	6	-3.9	-10
COc1ccc(NC(=O)N(C)C[C@@H]2OCc3cnnn3CCCC(=O)N([C@H](C)CO)C[C@@H]2C)c(OC)c1	-2	0.6%	0.1	5	-4.7	3
COc1ccccc1CC(=O)Nc1cccc2ccccc12	1	0.7%	-0.9	-13	-0.4	-3
O=C(NC(=S)N1CCCC1)c1ccccc1F	7	0.3%	-0.2	-3	-2.2	-10
CSCCC(NS(=O)(=O)c1ccc2c(c1)OCCO2)C(=O)NCCc1ccccn1 (stereo unspecified)	12	-0.7%	-0.2	-17	3.9	-22
CCOc1ccccc1NC(=O)NC1CCCCCCC1	5	0.7%	2.7	10	-0.8	-20
CCN(CC)c1ccc2cc(-c3nc4sc5c(c4c(=O)[nH]3)CCC(C(C)(C)C)C5)c(=O)oc2c1 (stereo unspecified)	/	2.3%	7.3	0	/	/
COc1ccccc1C(=O)N/C(=C\c1cn(C)c2ccccc12)C(=O)NCCCn1ccnc1	-1	1.0%	0.4	5	0.7	-8
Cc1nc(S/C(=C/c2ccc(-c3cccc(Cl)c3)o2)C(=O)O)n[nH]1	-3	1.2%	-0.5	2	-1.5	8
Cc1ccc(C(=O)NC(=S)Nc2c(C)ccc3nsnc23)cc1	-7	2.3%	-1.0	45	-5.4	-20
CNC(=O)c1ccc2cc(OC)c(OC)cc2c1	-7	1.3%	-0.3	-1	-4.2	-2
COc1ccc(OC)c(/C=N/NC2=NS(=O)(=O)c3ccccc32)c1	-5	1.2%	1.1	22	-0.9	-4

Continued.
SMILES	Six1-Eya2 inh	PINK1 modulator	TRPML1 ag	TRPML1 blocker	D2 ag	D2 PAM
CCN(CC)S(=O)(=O)c1ccc2oc(C(=O)NCc3ccc(F)cc3)c(C)c2c1	-2	2.0%	4.5	73	-0.7	11
O=C(O)Cn1cc2c(n1)CCCCC2	10	0.8%	-0.3	0	-4.6	7
O=C(O)c1sccc1NC(=O)c1c(Cl)cccc1Cl	4	0.0%	1.8	?	1.5	4
CN(C)S(=O)(=O)c1cccc(NC(=S)N/N=C/c2cccc(O)c2)c1	-15	7.6%	4.5	-9	4.7	2
O=C(O)C1CC=CCC1C(=O)c1ccccc1 (stereo unspecified)	23	0.6%	0.0	-20	-2.9	-9
Cc1cc(NC(=O)C2CC2)n(-c2nc3ccccc3s2)n1	-4	0.6%	1.6	27	-2.5	-9
C[C@H](CO)N1C[C@H](C)[C@H](CN(C)C(=O)OCc2ccccc2)OCc2cnnn2CCCC1=O	10	0.2%	-0.5	-12	-6.4	0

Some of these compounds in order of formula weight, low to high:
SMILES	Six1-Eya2 inh	PINK1 modulator	TRPML1 ag	TRPML1 blocker	D2 ag	D2 PAM
Cc1occc1C(=O)OCC(=O)Nc1ccc(F)cc1	6	1.0%	0.0	1	-0.1	3
O=C(O)c1sccc1NC(=O)c1c(Cl)cccc1Cl	4	0.0%	1.8	?	1.5	4
CCC(=O)N1CCC(C)(C(=O)Nc2ccc(OC)c(OC)c2)C1 (stereo unspecified)	11	-0.3%	-0.6	/	-3.6	-4
COc1cc(/C=C/C(=O)O)ccc1OS(=O)(=O)c1ccc(C)cc1	3	2.0%	0.3	11	-1.0	-5
Cc1nc(S/C(=C/c2ccc(-c3cccc(Cl)c3)o2)C(=O)O)n[nH]1	-3	1.2%	-0.5	2	-1.5	8
O=C(NCCc1ccccn1)c1cccc(S(=O)(=O)N2CCc3ccccc32)c1	0	2.3%	0.6	8	-0.5	-15
CCC1=Nc2cc(C(=O)NCCCOC)ccc2Sc2ccc(Br)cc21	/	1.9%	0.5	37	/	/
COc1ccc(CNC(=O)CN(c2cc(C)cc(C)c2)S(=O)(=O)c2c(C)noc2C)cc1	1	4.1%	1.1	5	3.1	-5
CCN(CC)c1ccc2cc(-c3nc4sc5c(c4c(=O)[nH]3)CCC(C(C)(C)C)C5)c(=O)oc2c1 (stereo unspecified)	/	2.3%	7.3	0	/	/
COc1ccc(NC(=O)N(C)C[C@@H]2OCc3cnnn3CCCC(=O)N([C@H](C)CO)C[C@@H]2C)c(OC)c1	-2	0.6%	0.1	5	-4.7	3

Another view of some results above.
Under each structure – Six1-Eya2 inh | PINK1 modulator | TRPML1 ag | TRPML1 blocker | D2 ag | D2 PAM
C=CC[C@]12CC=CC(=O)[C@@]1(O)O[C@H](c1ccc(OC)c(OC)c1)[C@H]2C
  6 | -1.3% | / | / | -3.3 | -55
Cc1cc(C)c(NC(=O)CNC(=O)c2ccccc2OCc2c(C)noc2C)c(C)c1
  -8 | 7.1% | -0.4 | -3 | -1.2 | -17
